Apaf-1 inh – human Apaf-1 inhibition. O14727. reconstituted apoptosome caspase-3 activity, DEVD-Rh110 fluorescence. inhibition, % at 20 µM. actives 0.71% (n = 330,000). AID 489030; active = inhibition of at least 40% at 20 µM;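 also: plate controls were DMSO wells for no effect and DEVD-CHO caspase inhibitor wells for full effect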
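Material: biochemical Apaf-1 apoptosome reconstitution. Medium: Hepes buffer, pH 7.5. Also added: cytochrome c activation, bis-DEVD rhodamine 110 substrate. Timing: 30 min compound preincubation, 50 min activation, room temperature. Measured by: rhodamine 110 fluorescence at Ex 480/Em 540 nm.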
EBI2 antag – EBI2 (human) antagonism. P32249. actives 0.81% (n = 360,000). inhibition, % at 5 µM. EBI2 beta-arrestin recruitment, luminescence, 7a,25-OHC stimulated; in the data active = inhibition above about 38%;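 also: enzyme fragment complementation signal reports receptor beta-arrestin coupling in cells; 0% = agonist plus DMSO wells and 100% = wells without agonist; some results beyond the cut were filed as inactive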
UBC13 polyUb – human UBC13 polyubiquitination inhibition; P61088; UBC13 polyubiquitin chain formation, TR-FRET; inhibition, % at 20 µM; actives 0.47% (n = 330,000); in the data active = inhibition above about 45%, passing the limit was not always enough; inconclusive = no clear call, values can overlap the other calls
Target sequence (P61088 whole entry, looked up): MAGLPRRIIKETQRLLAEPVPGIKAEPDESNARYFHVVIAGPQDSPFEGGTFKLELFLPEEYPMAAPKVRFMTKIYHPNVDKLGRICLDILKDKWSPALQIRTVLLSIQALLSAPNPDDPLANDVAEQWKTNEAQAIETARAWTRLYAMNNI
CCR6 antagonist – CCR6 (human) receptor antagonism | CHO-K1 CCR6 PathHunter beta-arrestin, luminescence, CCL20-stimulated | inhibition, % at 20 µM | actives 0.49% (n = 340,000) | AID 493098;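 active = compounds whose inhibition of the agonist-driven luminescence signal at 20 µM reaches about 50%, limit read from the data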;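 also: cells stimulated with CCL20 at 14 nM final; plate controls were DMSO with CCL20 for no effect and DMSO without agonist for full effect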
Target sequence (P51684 whole entry, looked up): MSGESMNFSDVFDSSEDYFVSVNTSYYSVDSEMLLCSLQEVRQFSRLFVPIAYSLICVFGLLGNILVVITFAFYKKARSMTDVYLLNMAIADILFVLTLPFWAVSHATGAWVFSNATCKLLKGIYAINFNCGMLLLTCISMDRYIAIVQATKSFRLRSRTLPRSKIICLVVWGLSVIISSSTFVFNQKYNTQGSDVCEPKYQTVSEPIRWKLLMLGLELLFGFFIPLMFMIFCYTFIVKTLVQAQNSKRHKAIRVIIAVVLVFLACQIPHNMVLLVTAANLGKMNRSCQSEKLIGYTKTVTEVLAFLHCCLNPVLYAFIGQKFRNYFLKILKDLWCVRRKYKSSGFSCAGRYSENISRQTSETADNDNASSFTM
* hit, by the source's call; u = inconclusive; x = no result given; & = joins results of further samples.

| No. | SMILES | Apaf-1 inh | EBI2 antag | UBC13 polyUb | CCR6 antagonist |
| --- | --- | --- | --- | --- | --- |
| 1 | CCC(C)(C)C(=O)O[C@H]1C[C@@H](C)C=C2C=C[C@H](C)[C@H](CC[C@@H]3C[C@@H](O)CC(=O)O3)[C@H]21 | 19.1 | 1.0 | u | -5.6 |
| 2 | COc1cccc(C(=O)Nc2ccc(C)cc2)c1 | -1.4 | -4.3 | 8.6 | 7.6 |
| 3 | COc1ccccc1NC(=O)C(=O)Nc1ccccn1 | -14.7 | -1.3 | 2.2 | 9.3 |
| 4 | Cc1ccc(NC(=O)C(=O)Nc2ccccn2)cc1 | 1.2 | -9.6 | 11.0 | 5.2 |
| 5 | COc1ccc(-c2cc3ccc(F)cc3cn2)cc1 | 13.3 | 34.5 | 5.7 | -0.3 |
| 6 | CCc1oc2ccccc2c1C(=O)c1cc(Br)c(O)c(Br)c1 | -6.6 | -2.1 | -9.6 | 18.4 |
| 7 | CC(C)(Sc1cc(C(C)(C)C)c(O)c(C(C)(C)C)c1)Sc1cc(C(C)(C)C)c(O)c(C(C)(C)C)c1 | 4.4 | 0.9 | -16.1 | 0.8 |
| 8 | COc1cc2nc(N3CCN(C(=O)[C@@H]4CCCO4)CC3)nc(N)c2cc1OC | -9.6 | 1.0 | 19.0 | 7.1 |
| 9 | O=C(O)[C@@H]1CCCC[C@@H]1C(=O)N1CCc2ccccc2C1CN1C(=O)c2ccccc2C1=O (stereo partly drawn) | -0.3 | 2.8 | 2.6 | -1.4 |
| 10 | CCC(=O)O[C@]1(C(=O)CCl)[C@@H](C)C[C@H]2[C@@H]3CCC4=CC(=O)C=C[C@]4(C)[C@@]3(F)[C@@H](O)C[C@@]21C | 3.4 | 14.2 | 6.6 | 13.4 |
| 11 | Cn1c(=O)n(C)c2cc(N3CCCCC3)c(NC(=O)c3ccccc3)cc21 | 8.8 | 1.5 | 2.0 | 11.3 |
| 12 | COc1ccccc1C(=O)Nc1nc2cc3c(cc2s1)OCCO3 | 23.5 | 30.6 | 25.0 | 5.1 |
| 13 | Cc1ccn2cc(-c3cccc([N+](=O)[O-])c3)nc2c1 | -2.5 | -4.3 | 1.5 | 4.5 |
| 14 | COc1ccc(-c2cc3ccccc3cn2)cc1 | 18.2 | -6.0 | 6.3 | 12.2 |
| 15 | O=S(=O)(c1ccc(F)cc1)n1cnc2ccccc21 | -1.7 | -11.3 | -2.9 | 10.5 |
| 16 | O=C(NC(=S)Nc1ccccn1)c1ccccc1 | 0.7 | 5.1 | -6.8 | 10.4 |
| 17 | Cc1nnc(SCC2=C(C(=O)O)N3C(=O)C(NC(=O)Cn4cnnn4)C3SC2)s1 (stereo not drawn) | -5.3 | 3.9 | 3.4 | 6.8 |
| 18 | Cc1ccc(O)c(-n2nc3ccccc3n2)c1 | 7.8 | -4.9 | 6.9 | 10.9 |
| 19 | COc1ccc(-c2noc(-c3ccoc3C)n2)cc1 | 16.9 | 1.6 | -5.2 | 1.8 |
| 20 | O=c1n(CCCN2CCN(c3cccc(Cl)c3)CC2)nc2ccccn12 | -6.0 | 1.2 | 19.2 | 12.9 |
| 21 | COc1ccc(NC(=O)Nc2ccccc2F)cc1Cl | -5.1 | -4.8 | 9.1 | -6.8 |
| 22 | COc1ccccc1-c1nc(-c2cccc(C)c2)no1 | 12.5 | 23.3 | -0.3 | 10.5 |
| 23 | O=C(Nc1ccccc1F)C(=O)Nc1cccc2ccccc12 | 17.1 | 4.9 | -9.5 | 7.9 |
| 24 | COc1cc2nc(N3CCN(C(=O)C4CCCO4)CC3)nc(N)c2cc1OC (stereo not drawn) | 1.9&-0.6 | -3.6&-3.3 | 12.3&-1.4 | -2.0&1.4 |
| 25 | CN(C)CCCOc1nn(Cc2ccccc2)c2ccccc12 | -2.6 | -0.9 | 3.6 | 6.9 |
| 26 | CN1[C@@H]2CC(OC(=O)[C@H](CO)c3ccccc3)C[C@H]1[C@@H]1O[C@@H]12 (stereo partly drawn) | 0.1&-3.3 | -0.5&2.3&2.2&5.6 | -7.3&3.9 | 5.1&8.6&11.0&-1.1 |
| 27 | COc1ccc(-c2noc(-c3ccccc3F)n2)cc1 | 20.1 | 1.4 | 1.9 | 12.4 |
| 28 | CCN1CCN(C(=O)c2ccc(NS(=O)(=O)c3ccccc3)cc2)CC1 | -0.8 | -2.7 | 8.2 | 2.3 |
| 29 | CCOC(=O)c1ccccc1N/C=C/C(=O)c1cccs1 | 14.8 | -6.3 | 2.2 | 8.0 |
| 30 | O=C(Nc1ccc2ccccc2c1)c1ccc(Br)o1 | 7.9 | 11.2 | 4.7 | 10.1 |
| 31 | Nc1ccc(Cn2ccc3c4c(N)nc(N)nc4ccc32)cc1 | x | -5.1 | x | 39.9 |
| 32 | Cc1nc(-c2ccc(C(=O)Nc3ccc(F)cc3)cc2)cs1 | -16.9 | 13.1 | -24.1 | 2.9 |
| 33 | Cc1nc2ccccc2c(-c2ccccc2)c1CC(=O)O | -5.4 | -12.9 | 1.0 | 3.3 |
| 34 | Nc1ccn(C2OC(CO)C(O)C2O)c(=O)n1 (stereo not drawn) | x | -0.1 | x | x |
| 35 | Cc1csc(NC(=O)Nc2ccccc2[N+](=O)[O-])n1 | 6.7 | 1.8 | 10.0 | 6.2 |
| 36 | O=C(O)c1cc(S(=O)(=O)N2CC=C(c3ccccc3)CC2)ccc1O | -0.7 | 0.6 | -6.0 | 5.2 |
| 37 | C=COC(=O)NC1CCc2cc(OC)c(OC)c(OC)c2-c2ccc(SC)c(=O)cc21 (stereo not drawn) | x | -18.0 | x | 16.2 |
| 38 | O=C(COc1ccc(F)cc1)Nc1nccs1 | 6.8 | 1.4 | -2.7 | 7.3 |
| 39 | c1ccc(-c2ccc(-c3cn4c(n3)CCC4)cc2)cc1 | 11.0 | 16.1 | 6.6 | -4.1 |
| 40 | Cc1cc(C(=O)COC(=O)c2ccco2)c(C)n1Cc1ccco1 | 4.1 | 2.1 | -11.2 | 5.9 |
| 41 | COc1ccc2cc(-c3ccsc3)ncc2c1 | 4.3 | 1.6 | 6.9 | -1.8 |
| 42 | N#Cc1ccc(OCC(O)CN2CCC(C(O)(c3ccccc3)c3ccccc3)CC2)cc1 (stereo not drawn) | 14.0 | 23.7 | -2.0 | -4.9 |
| 43 | Cc1nn2cc(-c3ccc(Cl)cc3)nc2s1 | 4.0 | 16.4 | -8.7 | -10.0 |
| 44 | O=C(NCCO[N+](=O)[O-])c1cccnc1 | 0.0 | -1.7 | -12.1 | -11.2 |

At a glance, some entries already given:
| No. | SMILES | Apaf-1 inh | EBI2 antag | UBC13 polyUb | CCR6 antagonist |
| --- | --- | --- | --- | --- | --- |
| 25 | CN(C)CCCOc1nn(Cc2ccccc2)c2ccccc12 | -2.6 | -0.9 | 3.6 | 6.9 |
| 26 | CN1[C@@H]2CC(OC(=O)[C@H](CO)c3ccccc3)C[C@H]1[C@@H]1O[C@@H]12 (stereo partly drawn) | 0.1&-3.3 | -0.5&2.3&2.2&5.6 | -7.3&3.9 | 5.1&8.6&11.0&-1.1 |
| 27 | COc1ccc(-c2noc(-c3ccccc3F)n2)cc1 | 20.1 | 1.4 | 1.9 | 12.4 |
| 28 | CCN1CCN(C(=O)c2ccc(NS(=O)(=O)c3ccccc3)cc2)CC1 | -0.8 | -2.7 | 8.2 | 2.3 |
| 29 | CCOC(=O)c1ccccc1N/C=C/C(=O)c1cccs1 | 14.8 | -6.3 | 2.2 | 8.0 |
| 30 | O=C(Nc1ccc2ccccc2c1)c1ccc(Br)o1 | 7.9 | 11.2 | 4.7 | 10.1 |
| 31 | Nc1ccc(Cn2ccc3c4c(N)nc(N)nc4ccc32)cc1 | x | -5.1 | x | 39.9 |
| 32 | Cc1nc(-c2ccc(C(=O)Nc3ccc(F)cc3)cc2)cs1 | -16.9 | 13.1 | -24.1 | 2.9 |
| 33 | Cc1nc2ccccc2c(-c2ccccc2)c1CC(=O)O | -5.4 | -12.9 | 1.0 | 3.3 |
| 34 | Nc1ccn(C2OC(CO)C(O)C2O)c(=O)n1 (stereo not drawn) | x | -0.1 | x | x |
| 35 | Cc1csc(NC(=O)Nc2ccccc2[N+](=O)[O-])n1 | 6.7 | 1.8 | 10.0 | 6.2 |
| 36 | O=C(O)c1cc(S(=O)(=O)N2CC=C(c3ccccc3)CC2)ccc1O | -0.7 | 0.6 | -6.0 | 5.2 |
| 37 | C=COC(=O)NC1CCc2cc(OC)c(OC)c(OC)c2-c2ccc(SC)c(=O)cc21 (stereo not drawn) | x | -18.0 | x | 16.2 |
| 38 | O=C(COc1ccc(F)cc1)Nc1nccs1 | 6.8 | 1.4 | -2.7 | 7.3 |
| 39 | c1ccc(-c2ccc(-c3cn4c(n3)CCC4)cc2)cc1 | 11.0 | 16.1 | 6.6 | -4.1 |
| 40 | Cc1cc(C(=O)COC(=O)c2ccco2)c(C)n1Cc1ccco1 | 4.1 | 2.1 | -11.2 | 5.9 |
| 41 | COc1ccc2cc(-c3ccsc3)ncc2c1 | 4.3 | 1.6 | 6.9 | -1.8 |
| 42 | N#Cc1ccc(OCC(O)CN2CCC(C(O)(c3ccccc3)c3ccccc3)CC2)cc1 (stereo not drawn) | 14.0 | 23.7 | -2.0 | -4.9 |
| 43 | Cc1nn2cc(-c3ccc(Cl)cc3)nc2s1 | 4.0 | 16.4 | -8.7 | -10.0 |
| 44 | O=C(NCCO[N+](=O)[O-])c1cccnc1 | 0.0 | -1.7 | -12.1 | -11.2 |

Screening results: PubChem BioAssay, Sanford-Burnham Center for Chemical Genomics

A portion of the library (hit frequency here may not be typical).
